# VACV mCherry inh = vaccinia inhibition (mCherry reporter). Vaccinia virus mCherry reporter infection, fluorescence; about a quarter of the inactives have no number. Potency, µM (doses to about 36.5 µM), for the others: at the top dose activity change, negative = inhibition, most hits filed as inhibitors. 310,000 compounds, 0.63% hits. AID 720579; active = well fitted inhibition curve with a large enough effect; inconclusive = small, poorly fitted or top-dose-only effect; inactive = no such curve, though single readings can be large or run the other way; tested in A549 cells; further: nearly all actives have a fitted effect of over 35% in size; inactives centre near -10
# VACV Venus inh = vaccinia inhibition (Venus reporter); Vaccinia virus Venus reporter expression, fluorescence; Potency, µM (titrated, usually from 36.5 µM), for the others: at the top dose activity change, negative = inhibition, most hits filed as inhibitors; 330,000 compounds, 0.46% hits; active means well fitted inhibition curve with a large enough effect; inconclusive means small, poorly fitted or top-dose-only effect; inactive means no such curve, though single readings can be large or run the other way; tested in A549 cells; further: nearly all actives have a fitted effect of over 30% in size; inactives centre near -10
# * marks the source's active call; other numbers are inactive results; i = inactive; ? = inconclusive; . = no result given; [ ] = dose if it differs, or a comment. On the % scale 0 is the no-effect control and ±100 the full control effect; potency means the concentration at half of the fitted maximal effect.
# Screens in order: VACV mCherry inh | VACV Venus inh
> CC1(C)c2cc(Cl)ccc2-n2c1cc(O)c(-c1ccccc1)c2=O
 : i | -3%
> O=C(COc1ccc(/C=N/NS(=O)(=O)c2ccccc2)cc1)Nc1cccc(Cl)c1
 : . | ?
> C(=NC12CN3CN(CN(C3)C1)C2)c1cccs1
 : i | -5%
> COc1ccc([C@H]2C=C(C(=O)O)O[C@@H](OCc3ccc(CO)cc3)C2)cc1
 : i | 2%
> Cc1nc(CSc2nc3[nH]ncc3c(=O)n2-c2ccccc2)cs1
 : -18% | -16%
> COCCn1c(SCC(=O)c2ccccc2)nc2ccccc2c1=O
 : -16% | -11%
> CCC(=O)O[C@H]1CC[C@H]2[C@@H]3CCC4=CC(=O)CC[C@]4(C)[C@H]3CC[C@]12C
 : -2% | -12%
> CC(=O)N1CCN(C(=O)c2ccc(S(=O)(=O)Nc3ccccc3Cl)cc2)CC1
 : i | -2%
> CCCN(CCC)C(=O)c1c(NC(=O)CC)sc2c1CCCCC2
 : -12% | -1%
> COc1cc2oc(=O)cc(-c3ccc(-c4ccc(C)cc4)cc3)c2c(OC)c1OC
 : 5% | -6%
> COC(=O)[C@@]12C[C@@H](CC(=O)NCCCCc3ccccc3)C(=O)N(Cc3ccc4c(c3)OCO4)C1=CCC(C)(C)C2
 : ? | ?
> Cc1ccc(SCC(=O)NNC(=O)c2ccccc2)cc1C
 : -9% | -7%
> CCc1nc2ccc(C(=O)NCc3ccc4c(c3)OCO4)cn2c1N(CC)CCOC
 : i | -1%
> O=C1NC(=O)C(Nc2ccc(Cl)c(Cl)c2)C(=O)N1
 : -17% | -9%
> COc1ccc(COC(=O)c2cccc(S(=O)(=O)N3CCN(C(C)=O)CC3)c2)cc1F
 : -22% | -16%
> CC(=O)N1CCCc2cc(S(=O)(=O)CCC(=O)Nc3cccc(C)c3C)ccc21
 : -23% | -13%
> COc1ccc(S(=O)(=O)N2CCN(S(=O)(=O)c3ccc(C(F)(F)F)cc3)CC2)cc1C
 : -15% | -19%
> CCN(CC)C(=O)C1=C(C)N(Cc2ccc(F)cc2)C(=O)C(CC(=O)NCC2CCCCC2)C1 (stereo not drawn)
 : -22% | ?
> CCOC(=O)c1cc(-c2cccs2)nc2c1c(C)nn2-c1ccccn1
 : -25% | ?
> Cc1ccc(-c2nc(CS(=O)(=O)CC(=O)NCc3ccccc3Cl)c(C)o2)cc1
 : -5% | -7%
> CCN(CC)C(=O)CSc1nnc2ccc3ccccc3n12
 : -7% | -4%
> CCC(=O)CN(Cc1cc(OC)ccc1OC)S(=O)(=O)c1ccccc1Br
 : 0% | -17%
> O=C(NN=C1CCCC1)C1COc2ccccc2O1 (stereo not drawn)
 : ? | -15%
> CC(C)CNC(=O)COC(=O)c1ccc([N+](=O)[O-])cc1Cl
 : -18% | -16%
> O=C(Nc1ccccc1)C1CCN(C(=O)c2ccco2)CC1
 : 15% | 2%
> Cc1ccc(NCc2nnc(SCC(=O)Nc3cccc(O)c3)n2CC2CCCO2)c(C)c1 (stereo not drawn)
 : -28% | -13%
> O=C(c1ccc(CSc2nc3ccncc3[nH]2)cc1)N1CCCCCC1
 : -19% | -10%
> COc1ccc(CNC(=O)c2ccc3c(c2)N(Cc2ccccc2F)C(=O)c2ccccc2S3(=O)=O)cc1
 : -1% | -6%
> N#CCN1C(=O)C2CCCN2c2ccc(S(=O)(=O)N3CCOCC3)cc21 (stereo not drawn)
 : -7% | 4%
> Cc1cc(S(=O)(=O)N2CCOCC2)ccc1OCC(=O)Nc1cccc(C(F)(F)F)c1
 : -14% | -3%
> CCc1ccc(CN(Cc2ccco2)C(=O)COc2ccccc2Cl)cc1
 : -6% | -2%
> CCCCNC(=O)CSc1nc2ccc(N3CCOCC3)cc2c(=O)n1CCc1ccccc1
 : i | -4%
> COc1ccc(NC(=S)N(CCN2CCOCC2)Cc2cc3cc4c(cc3[nH]c2=O)OCCO4)cc1
 : -2% | -19%
> COc1ccccc1-c1nn(CCC(=O)Nc2ccccc2)c2nc(C)cc(C)c12
 : -24% | -17%
> COc1ccc(Sc2ccc(/C=C3\C(=O)NN(c4ccccc4)C3=O)o2)cc1
 : i | 3%
> COc1ccc(/C(C)=N/NC(=O)C(NC(=O)c2ccccc2)c2n[nH]c(=O)c3ccccc23)c(OC)c1 (stereo not drawn)
 : -8% | -4%
> Cc1ccc(C(=O)N2CCOCC2)cc1S(=O)(=O)N1CCCC1
 : i | -6%
> C=CCN(C(=O)c1csnn1)C(C(=O)NC1CCCC1)c1ccc(OC)cc1 (stereo not drawn)
 : -7% | 2%
> CCC(CC)COC(=O)C1=C(C)NC(=O)NC1c1ccc(OC)cc1 (stereo not drawn)
 : i | -14%
> CC1CCC2(CC1)NC(=O)N(CC(=O)Nc1cccc(S(=O)(=O)N(C)c3ccccc3)c1)C2=O (stereo not drawn)
 : -5% | ?
> Cc1ccc(C(=O)N/N=C/C2=Cc3ccccc3OC2C)cc1 (stereo not drawn)
 : -9% | -15%
> Cc1cnc(NC(=O)c2cccs2)s1
 : -12% | -13%
> COc1cc(C(=O)NNC(=O)c2nn(C)c(=O)c3ccccc23)cc(OC)c1OC
 : -3% | -3%
> Cc1ccc(Br)cc1S(=O)(=O)N1CCN(c2ccccc2)CC1
 : . | -21%
> O=C(NCCc1ccccc1)c1cccnc1N1CCCCCC1
 : i | -19%
> Cc1cccc(-c2cc(C(=O)O)c3c(-c4ccc(F)cc4)[nH]nc3n2)c1
 : 1% | -8%
> CCOc1ccc(NC(=S)Nc2ccccc2C2CC2)cc1
 : i | -5%
> CCOc1ccc2nc(Cl)c(C3CC(c4ccc(OC)cc4)=NN3S(C)(=O)=O)cc2c1 (stereo not drawn)
 : 15% | 37%[activator]
> O=[N+]([O-])c1ccc(NN=C2CC3CCC2C3)c([N+](=O)[O-])c1 (stereo not drawn)
 : 64%[activator] | 10%
> c1ccc(CCNCc2cccs2)nc1
 : -15% | -6%
> COc1ccc(C(=O)Nc2ccccc2C(=O)Nc2cccnc2)cc1
 : i | -9%
> Nc1cc(=O)nc(SCC(=O)Nc2ccccc2Cl)n1-c1ccccc1
 : 3% | -3%
> O=C(CN1C(=O)C2CCCCC2C1=O)N1CCN(c2ccccc2)CC1 (stereo not drawn)
 : -17% | 0%
> CC(C)(C)c1ccc(C(=O)NCC(c2cccs2)S(=O)(=O)c2ccccc2)cc1 (stereo not drawn)
 : -27% | -17%
> O=C(Cn1nc(C(F)(F)F)c2c1CCCC2)N1CCOCC1
 : i | -3%
> COc1ccc2[nH]c3c(c2c1)CCN1C(=O)C(CC(=O)NCCCn2ccnc2)C[C@H](C(=O)N2CCOCC2)[C@@]31C (stereo partly drawn)
 : -12% | -1%
> C=CC[C@H]1CC(C)=C[C@H](CC=C)N1
 : i | -16%
> Cc1ccc(-n2nc(-c3ccc(N)cc3)cc2N)cc1
 : -7% | -22%
> COC(=O)C1=C(c2ccccc2)C[C@@H]2CC[C@H]1N2C(=O)N1CCOCC1
 : i | -3%
> CC1CCC[C@H](O)CCCCCc2cc(O)cc(O)c2C(=O)O1 (stereo partly drawn)
 : -10% | -26%

# Reprinted from the part before: 7 entries, then new ones.
# Screens in order: VACV mCherry inh | VACV Venus inh
> CC(C)(C)c1ccc(C(=O)NCC(c2cccs2)S(=O)(=O)c2ccccc2)cc1 (stereo not drawn)
 : -27% | -17%
> O=C(Cn1nc(C(F)(F)F)c2c1CCCC2)N1CCOCC1
 : i | -3%
> COc1ccc2[nH]c3c(c2c1)CCN1C(=O)C(CC(=O)NCCCn2ccnc2)C[C@H](C(=O)N2CCOCC2)[C@@]31C (stereo partly drawn)
 : -12% | -1%
> C=CC[C@H]1CC(C)=C[C@H](CC=C)N1
 : i | -16%
> Cc1ccc(-n2nc(-c3ccc(N)cc3)cc2N)cc1
 : -7% | -22%
> COC(=O)C1=C(c2ccccc2)C[C@@H]2CC[C@H]1N2C(=O)N1CCOCC1
 : i | -3%
> CC1CCC[C@H](O)CCCCCc2cc(O)cc(O)c2C(=O)O1 (stereo partly drawn)
 : -10% | -26%
> Cc1ccccc1-c1cnc(C(O)c2ccc(F)c(F)c2)[nH]1 (stereo not drawn)
 : i | -10%
> CC12CCC3C(CC=C4CC(O)CCC43C)C1CC(=CN1CCOCC1)C2=O (stereo not drawn)
 : -21% | 1%
> Cc1onc(-c2c(F)cccc2Cl)c1C(=O)N(Cc1ccccc1)C(C)C
 : i | -15%
> CSc1ncccc1C(=O)NCCN1Cc2ccccc2OC(c2ccccc2F)C1 (stereo not drawn)
 : -11% | 2%
> CC(C)(C)NC(=O)NC(=O)CN1C(=O)NC(C)(c2ccccc2)C1=O (stereo not drawn)
 : 15% | 11%
> CCn1cc(C(=O)OCC(=O)Nc2cccc(Cl)c2C)c(=O)c2ccc(C)nc21
 : -3% | -11%
> Fc1ccc(-c2ncc3ccccn23)cc1
 : i | -8%
> Cc1nc2sc(C(c3ccco3)N3CCC4(CC3)OCCO4)c(O)n2n1 (stereo not drawn)
 : -1% | 1%
> COC(=O)c1ccc(/C=N/OCC(=O)NC2CCCC(C)C2C)cc1 (stereo not drawn)
 : -7% | -21%
> Cc1ccc(Oc2cc(NC(=O)CCCn3nc([N+](=O)[O-])cc3C)cc([N+](=O)[O-])c2)cc1
 : ? | -25%
> COCCNC(=O)C1CC(c2ccccc2[N+](=O)[O-])=NO1 (stereo not drawn)
 : i | -6%
> COC(=O)Nc1ccc(S(=O)(=O)N2CCCCC2C(=O)O)cc1 (stereo not drawn)
 : i | -9%
> CCN(CC)c1ccc2c(C)c(-c3ccc(N)cc3)c(=O)oc2c1
 : . | -27%
> CCOc1cc(CNCCO)cc(Br)c1OCc1ccc(Cl)cc1
 : ? | ?
> O=C(Nc1ccc2c(c1)OCCO2)c1ccoc1
 : -14% | -8%
> C=CCn1c(=O)c2ccccc2n2c(SCC(=O)N(C)C)nnc12
 : ? | -12%
> Cc1ccc(S(=O)(=O)Nc2cccc(C(=O)N3CCN(c4ccccc4O)CC3)c2)cc1F
 : -21% | 1%
> CCN(C(=O)NCc1noc2ccccc12)c1cc(C)ccc1C
 : 5% | -7%
> CC1(C(=O)NS(=O)(=O)c2ccc(F)cc2F)CCN1C(=O)Cc1cc(F)ccc1F (stereo not drawn)
 : 36%[activator] | 2%
> O=C(c1ccco1)N1CCN(c2ncnc3sc4c(c23)CCC4)CC1
 : ? | -14%
> Cc1ccc(-n2c(SCc3nc(-c4ccc(Cl)cc4)no3)nnc2-c2ccncc2)cc1
 : -7% | 2%
> O=C(NCCc1ccccc1)C1CCCN(c2ncnc3c2nc2n3CCCCC2)C1 (stereo not drawn)
 : -22% | -22%
> CCc1cccc(C)c1NC(=O)CSc1nnc(CC)n2c1cc1occc12
 : -8% | -9%
> COC(=O)CC1C(=O)NCCN1C(=O)Nc1ccc(Cl)cc1 (stereo not drawn)
 : -13%[1.46 µM] | -15%
> Cc1ccsc1C(=O)OCC(=O)NCCNC(=O)COC(=O)c1sccc1C
 : 0% | -17%
> Cc1ccccc1C(=O)NCCNc1ccc([N+](=O)[O-])cc1
 : i | -16%
> COC(=O)COc1cc(OCC(=O)OC)c2c(C)c(Cl)c(=O)oc2c1
 : -12% | 12%
> O=C(NC1CC(=O)N(c2ccc(Cl)cc2)C1)c1cccs1 (stereo not drawn)
 : -10% | -13%
> COc1ccc(CNc2ncnc3cc(Cl)ccc23)cc1OC
 : -15% | -25%
> COc1ccc(OC)c(-c2csc(NC(=O)CN3C(=O)C4CCCCC4C3=O)n2)c1 (stereo not drawn)
 : -3% | -18%
> O=C(NC1CC1)C1CCN(c2ncnc3c2sc2cccc(F)c23)CC1
 : i | ?
> Oc1cccc(/C=N/Nc2cccc3cccnc23)c1
 : -10% | -8%
> CC(=O)Nc1ccc(NC(=O)COC(=O)/C(=C/c2ccccc2)n2nnnc2C)cc1
 : ? | -28%
> CC(=O)n1c2ccccc2c2nc(NC(C)C)sc21
 : -14% | -8%
> Cc1[nH]c(=O)[nH]c(=O)c1S(=O)(=O)Nc1cccc(Cl)c1C
 : 5% | 5%
> CC(C)COc1ccc(C(=O)N2CCN(CCc3ccccn3)CC2)cc1
 : -14% | -6%
> CC1CN(C(=O)c2ccn(C)n2)CC(C)O1 (stereo not drawn)
 : -1% | -14%
> CCCc1ccc(C(=O)CCC(=O)O)cc1
 : -3% | -1%
> CC1=Nc2cc(C(=O)NCCCN3CCOCC3)ccc2Sc2c(C)ccc(C)c21
 : -18% | ?
> CCc1ccc(OC(=O)CSc2nnc(-c3ccc4c(c3)OCO4)o2)cc1
 : -8% | -8%
> COc1c(Br)cc(C(N)=O)cc1OCc1ccccc1
 : -27% | -8%
> CCCCN1CC(c2nc3ccccc3n2CCCCOc2c(C)cccc2C)CC1=O (stereo not drawn)
 : i | -19%
> COC(=O)c1cc(NC(=O)CCS(=O)(=O)c2cc(Br)cc3c2N(C(=O)C2CC2)CC3)cc(C(=O)OC)c1
 : -10% | -7%
> Cc1ccc(O)c(-c2cc(C(=O)Nc3cccnc3)[nH]n2)c1
 : -25% | -1%
> COc1cc(Cl)c(C)cc1NC(=O)CN1CCCCCC1
 : -14% | -17%
> CCOC(=O)c1c(S(=O)(=O)NCC(=O)Nc2ccc(Cl)c(C(F)(F)F)c2)c(C)n(C)c1C
 : ? | ?
> CCCC(=O)N1CCC1(C)C(=O)NS(=O)(=O)c1ccccc1Cl (stereo not drawn)
 : 11% | 0%
> COC(=O)COc1ccc(/C=N/NC(=O)c2ccc(N(Cc3ccccc3)S(C)(=O)=O)cc2)cc1
 : i | -12%
> Cc1ccc(-c2[nH]ncc2CNCCc2cnn(-c3ccccc3)c2)cc1C
 : -29% | -23%

# This is a random part of the collection. About 0.87% of those tested had a hit in this group.
